# HIV TAR-Tat: HIV-1 TAR-Tat binding disruption; HIV-1 TAR RNA, Tat peptide displacement FRET; hits give high values; z-score (concentration not given with the values); actives 0.6% (n = 100,000);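 note: score is relative to mean and SD of negative controls; some compounds called inactive have numbers as strong as hits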
# CDC25B-CDK2 inh: human CDC25B-CDK2/CyclinA binding inhibition; P30305+P24941; HTRF CDC25B-CDK2/CyclinA binding, anti-His/anti-Flag; hits give high values; z-score (test concentration not listed); actives 0.72% (n = 94,000);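 note: score is relative to mean and SD of negative controls; strong numbers were not always called active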
# An asterisk follows results filed as active; x = no result given; & = joins results of further samples.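 Rule for the calls: active = z-score from 3 up in half or more of its runs; inactive = the rest.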
# Start of the listing, in advance:
# Values run as follows: HIV TAR-Tat	CDC25B-CDK2 inh
> CCCS(=O)(=O)Nc1cc(-c2cn3cccc(C)c3n2)ccc1C
  0.04	-0.97
> Cc1cc(-c2ccc(C)c(S(=O)(=O)Nc3ccccc3)c2)on1
  1.11	x
> Cc1[nH]ccc(=O)c1OCc1ccccc1
  x	-1.34
> Cc1cccc(N(C)S(=O)(=O)c2ccc(-c3cnc(C)o3)cc2)c1
  1.47	x
> CCn1c(=O)cc(N2CCN(c3cccc(Cl)c3)CC2)[nH]c1=O
  2.18	x
> NC(=O)C1CCN(C2CC(=O)N(c3ccc(Br)cc3)C2=O)CC1 (configuration not stated)
  0.86	0.17

# The whole of this part (from the top)
# Values run as follows: HIV TAR-Tat	CDC25B-CDK2 inh
> CCCS(=O)(=O)Nc1cc(-c2cn3cccc(C)c3n2)ccc1C
  0.04	-0.97
> Cc1cc(-c2ccc(C)c(S(=O)(=O)Nc3ccccc3)c2)on1
  1.11	x
> Cc1[nH]ccc(=O)c1OCc1ccccc1
  x	-1.34
> Cc1cccc(N(C)S(=O)(=O)c2ccc(-c3cnc(C)o3)cc2)c1
  1.47	x
> CCn1c(=O)cc(N2CCN(c3cccc(Cl)c3)CC2)[nH]c1=O
  2.18	x
> NC(=O)C1CCN(C2CC(=O)N(c3ccc(Br)cc3)C2=O)CC1 (configuration not stated)
  0.86	0.17
> Cc1cc2ccccc2n1-c1ccc(C(=O)N2CCC(C(=O)N3CCCCC3)CC2)s1
  0.77	x
> COc1ccc(-c2noc(CN3CCCCC3)n2)cc1OC
  2.01	-0.8
> Cc1cc(NCc2ccccc2)n2nc(-c3ccco3)nc2n1
  -0.35	x
> COc1ccc(CNc2nn3cnnc3c3ccccc23)cc1
  -0.3	-2.05
> CCOC(=O)N1CCN(CC(O)COc2ccc(OC(F)(F)F)cc2)CC1 (configuration not stated)
  x	11.1*
> CC(C)CC1Nc2ccc(C(=O)N3CCCC3)cc2NC1=O (configuration not stated)
  0.66	0.04
> COc1c(N2CCNC(C)C2)c(F)cc2c(=O)c(C(=O)O)cn(C3CC3)c12 (configuration not stated)
  1.3	x
> O=c1c2cccnc2nc(SCc2cc(=O)n3ccccc3n2)n1Cc1ccc(F)cc1
  1.16	-2.61
> Cc1cc2c(Oc3cccnc3)ncnc2s1
  -0.27	x
> O=C(Nc1nc2ccc([N+](=O)[O-])cc2s1)c1ccc(S(=O)(=O)N2CCCCC2)cc1
  x	-3.12
> CC1=C(c2ccc(C)cc2)S(=O)(=O)N=C1N(C)Cc1ccccc1
  -1.08	-1.55
> COCCN(Cc1cccs1)S(=O)(=O)c1csc(C(N)=O)c1
  1.37	x
> Cc1ccc(-n2nnc(-c3nc(-c4ccccc4Cl)no3)c2C)cc1
  0.74	x
> CCOC(=O)C1CCN(C(=O)C2CCN(c3nn4c(=O)cc(C)nc4s3)CC2)CC1
  1.61	0.45
> CC(C)OCCCNC(=O)c1cc2n(n1)CC(C)(C(=O)NC1CCCC1)N(C)C2=O (configuration not stated)
  0	x
> O=c1oc2cc3occ(-c4ccc(F)cc4)c3cc2c2c1CCCC2
  x	-2.36
> c1ccc(C2CCC(NCCc3c[nH]c4ccccc34)CC2)cc1 (configuration not stated)
  x	1.66
> Cc1nc2scc(C)n2c(=O)c1S(=O)(=O)NCCC1=CCCCC1
  0.71	-0.28
> Cc1ccc(S(=O)(=O)n2ccnc2)cc1C
  0.8	-1.58
> O=C(CS(=O)(=O)c1cccc2nsnc12)Nc1nc2ccc(Cl)cc2s1
  0.9	x
> Cc1c(C(=O)Nc2ccc(Br)cc2F)oc2ccc3c(c12)C(=O)CC(C)(C)O3
  1.04	x
> Cc1c(N2C(=O)c3cccc4cccc(c34)C2=O)c(=O)n(-c2ccccc2)n1C
  1.03	1.62
> CC(C)c1ccc(OCCCCCN2CCOCC2)cc1
  -0.87	-0.83
> COc1ccc(C2CC(C(F)(F)F)n3ncc(C(=O)O)c3N2)cc1OC (configuration not stated)
  1.79	0.09

# Copied from the list:
# `Cc1nc2scc(C)n2c(=O)c1S(=O)(=O)NCCC1=CCCCC1` in HIV TAR-Tat → 0.71
# `COc1ccc(CNc2nn3cnnc3c3ccccc23)cc1` in HIV TAR-Tat → -0.3

# New compounds follow
# Values run as follows: HIV TAR-Tat	CDC25B-CDK2 inh
> Cn1c(SCC(=O)N2CCCC2)ncc(C(=O)Nc2ccc(F)cc2)c1=O
  -0.49	x
> CC(C)Cc1cc(C(=O)NC(C)C)no1
  -1.74	-1.09
> O=C(NC1CCCC1)c1c2c(nc3ccccc13)C(=O)N(C1CCCCC1)C2
  1.83	x
> CCC(CC)C(=O)OCc1cc(=O)n2nc(C)sc2n1
  0.54	x
> CCCN1CCN(C(=O)Cn2nc(C)n3c(cc4sccc43)c2=O)CC1
  -0.7	-0.71
> CC(C)CCN1NC2(CCCC(C)C2)NC1=S (configuration not stated)
  x	-0.56
> CCC12CN3CC(CC)(CN(C1)C3c1cc(Br)ccc1O)C2O (configuration not stated)
  0.16	-0.45
> CN1C(C(=O)N2CCOCC2)=CC(c2ccc3c(c2)OCO3)=NS1(=O)=O
  1.13	0.1
> O=C(CSc1ccc2nc(-c3ccccc3)cn2n1)OCc1ccccc1
  0.23	x
> CCn1c[n+](CC(O)COC2CCCCC2)c2cc(C)c(C)cc21 (configuration not stated)
  0.8	-3.42
> CSc1cccc(NC(=O)CSc2ncc3c(n2)-c2cc(Cl)ccc2N(C)S3(=O)=O)c1
  0.81	x
> Cc1cc(S(=O)(=O)[C@H]2CS(=O)(=O)C[C@@H]2NCc2ccc3c(c2)OCO3)ccc1F
  -1.86	-1.18
> COC(=O)C1=C(C)NC2=C(C(=O)CC(C)(C)C2)C1c1ccc(C)o1 (configuration not stated)
  0.83	1.22
> CCCc1[nH]nc2c1C(c1cccnc1)C(C#N)=C(N)O2 (configuration not stated)
  0.97	-1.32
> CC1=C(c2ccc(C)c(C)c2)S(=O)(=O)N(Cc2ccc(C(=O)NCCc3ccco3)cc2)C1=O
  1.2	x
> COc1cccc(CSc2nc3ncccc3[nH]2)c1
  1.23	x
> CC(C)CC(=O)N1CCc2cc(CNS(=O)(=O)c3ccc4[nH]c(=O)oc4c3)ccc21
  1.45	x
> COCCCNC(=S)NNC(=O)c1c(OC)cc(C(F)(F)F)cc1C(F)(F)F
  x	-0.77
> Cc1nc2ccccc2c2c1C(=O)N(c1ccc(F)cc1F)C2=O
  -1.51	0.06
> O=C(Cn1nnc(N2CCCC2)n1)NNC(=S)Nc1ccc(Cl)cc1
  x	-0.25
> CCCn1c(SCc2nc(-c3cccs3)no2)nnc1-c1ccncc1
  2.29	-0.4
> CCCCN1C=C(OC(=O)C(C)C)c2ccccc2S1(=O)=O
  -0.46	-1.47
> COc1cccc(Nc2nc(NCCN3CCCC3)nc3c2cnn3C)c1
  0.35	x
> CSc1cccc(NC(=O)NC(c2ccccc2)c2nnc(-c3ccccc3Cl)o2)c1 (configuration not stated)
  1.06	x
> COc1ccc(C(=O)Nc2cnc3oc(-c4ccc(OC)cc4)nn3c2=O)cc1
  2.61	x
> CCN1CCN(c2ncnc3onc(-c4ccc(F)cc4)c23)CC1
  -0.58	x
> Cc1ccc(N2C(=O)CSC23C(=O)Nc2ccc(Br)cc23)cc1C (configuration not stated)
  x	-1.67
> C=CCOc1ccc(C2c3c(oc4ccccc4c3=O)C(=O)N2c2nncs2)cc1OC (configuration not stated)
  -0.11	1.72
> CCCOCc1ccc(O)c2ncccc12
  -0.71	-0.42
> O=C(O)CCC(=O)N1c2ccccc2NC2=C(C(=O)CC(c3ccc(F)cc3)C2)C1c1cccnc1 (configuration not stated)
  -1.64	-0.15
> COc1ccc(OC)c(NC(=O)N2CCN(c3cc(N4CCN(C)CC4)nc(C)n3)CC2)c1
  1.32	-2.56
> CCOCCCNc1nc2c(S(=O)(=O)c3ccc(CC)cc3)nnn2c2ccc(Cl)cc12
  -0.12	-2.21
> O=S(=O)(Nc1nc2ccccc2nc1Sc1nc2ccccc2s1)c1ccccc1
  x	2.69
> Cc1nc2sc(C(c3ccco3)N3CCN(C(=O)c4ccco4)CC3)c(O)n2n1 (configuration not stated)
  x	-1.44
> CN1C(C(=O)NC2CCCCC2)=CC(c2ccc(F)cc2)=NS1(=O)=O
  0.91	-2.35
> Cc1ccc(-c2cc(C(=O)N(Cc3ccco3)Cc3cccs3)no2)cc1F
  -0.72	0.48
> Cc1nn2c(=O)cc(CN3CCN(c4ncccn4)CC3)nc2s1
  0.39	x
> Cc1nc2nc(-c3ccco3)[nH]n2c(=O)c1C
  2.71	2.85
> CCOC(=O)CN1C2=NCCN2C(=O)c2c1sc1c2CCCC1
  -1.16	-0.07
> CCn1c2ccccc2c2nnc(SCC(=O)NC(CC(C)C)C(=O)OC)nc21 (configuration not stated)
  -0.14	-2.43
> COC(=O)c1cc(-c2cccs2)nc2c1c(=O)nc(SCc1cc(=O)n3ccccc3n1)n2C
  -3.26	x
> CC1=C(c2ccc(F)cc2)S(=O)(=O)NC1=NCc1ccc(C)cc1
  0.6	x
> CCCNC(=O)C1=C(C)C(=O)OC12CCN(S(=O)(=O)CC)CC2
  0.55	x
> COCCCNC(=O)C1CCN(c2ncnc3c2nc2n3CCCCC2)CC1
  -0.07	x
> CNC(=O)C1CCCN(S(=O)(=O)c2c(C)noc2/C=C/c2cccs2)C1 (configuration not stated)
  0.52	x
> Cc1c(C(=O)NCC(c2ccco2)N2CCCC2)oc2ccc(Cl)cc12 (configuration not stated)
  -2.22	-1.86
> O=C(NC1CCCC1)c1c(O)c2c([nH]c1=O)CCCC2
  2.06	x
> O=C(CCS(=O)(=O)c1cccc2nsnc12)N1CCCc2ccccc21
  -0.74	0.89
> Nc1nc(=S)[nH]c2c1C1(CCCC1)Cc1ccccc1-2
  x	-5.65
> COc1ccc2c(c1)c(=O)oc1cc3occ(-c4ccccc4)c3cc12
  1.57	-0.05
> Cn1c(=O)n(CC(=O)N2CCCC2)c(=O)c2cc(S(=O)(=O)NC3CCCCC3)ccc21
  1.92	x
> Cc1nn(C)c(NNC(=O)C(C)(C)C)c1[N+](=O)[O-]
  x	0.27
> Cc1ccc(N2C(=O)C(=O)/C(=C(\O)c3ccccc3)C2c2ccc(N(C)C)cc2)cc1 (configuration not stated)
  0.54	-3.78
> Cc1nc(CNS(=O)(=O)c2ccccc2F)cs1
  1.25	0.44
> CCCCN(C)S(=O)(=O)c1ccc2c(c1)oc(=O)n2C
  x	-1.34
> CCN1CCN(c2nc3ncn(CC(N)=O)c(=O)c3s2)CC1
  1.59	x
> CCOC(=O)N1CCN(c2c(NCCCN3CCCC(C)C3)c(=O)c2=O)CC1 (configuration not stated)
  -0.8	-1.7
> O=S1(=O)C[C@H](N2CCc3ccccc3C2)[C@@H](S(=O)(=O)c2cccs2)C1
  -0.43	-1.08
> COc1ccc(/C=C2/SC(=O)N(CCC(=O)Nc3ccc(S(=O)(=O)Nc4nccs4)cc3)C2=O)cc1
  x	-4.2
> CC(C)Oc1ccc(-c2nc(C(N)=O)c3[nH]c(=O)n(-c4ccc(F)cc4)c3n2)cc1
  -0.54	x

# More compounds follow.
# Values run as follows: HIV TAR-Tat	CDC25B-CDK2 inh
> CC(C)CCN1C(=O)Cn2cccc2C1C(=O)NC1CCC(C)CC1 (configuration not stated)
  0.02	-0.52
> Cc1oc(C(C)(C)C)cc1-c1cc(N)n(-c2ccc(S(N)(=O)=O)cc2)n1
  x	-0.84
> COc1ccc(N2CCN(C(CNS(=O)(=O)c3ccc(F)cc3)c3ccco3)CC2)cc1 (configuration not stated)
  1.77	x
> Cc1nc(SCc2ccc(C(=O)O)cc2)nc2c1CCCC2
  x	-0.6
> CCOCCOC(=O)C1=C(C)NC2=C(C(=O)CCC2)C1c1cc(Br)c(O)c(OCC)c1 (configuration not stated)
  0.62	-0.69
> CSc1ccc([N+](=O)[O-])cc1C(=O)/C=C/N(C)C
  x	-3.45
> CCc1ccc(NC(=O)NC2=C(C#N)C(C)(CC)Cc3ccccc32)cc1 (configuration not stated)
  0.31	-0.48
> COC(=O)c1sccc1NC(=O)Cn1ncc2c([nH]c3ccccc32)c1=O
  3.37	x
> O=C(O)CCc1nnc2ccc(NCc3cccnc3)nn12
  1.02	-0.46
> CC(C)(C)c1cc2ncnc(N3CCN(c4ncnc5cc(C(C)(C)C)sc45)CC3)c2s1
  x	-1.88
> CCCC(NC(=O)CCc1c(C)nc2c(c1C)c(=O)n(C)c(=O)n2C)c1cccs1 (configuration not stated)
  0.25	-1.02
> COC(=O)C1=C(C)NC2=C(C(=O)CC(c3ccccc3)C2)C1c1ccc(C)cc1 (configuration not stated)
  0.86	-2.17
> CCSCCOC(=O)C1=C(C)NC2=C(C(=O)CC(c3ccc(OC)cc3)C2)C1c1ccc(F)cc1 (configuration not stated)
  -0.12	-2.28
> C=C(C(=O)O)C(O)CCCCOc1ccc(Cl)cc1 (configuration not stated)
  x	-0.98&-0.35
> O=C(CN1C(=O)C(=O)c2ccccc21)c1ccccc1
  2.53	0.52
> CCOc1ccc2ncc(S(=O)(=O)c3ccccc3)c(N3CCC(C)CC3)c2c1
  0.02	0.42
> Cc1cc2nc(COC(=O)c3ccc(Cl)cc3)cc(=O)n2o1
  0.12	x
> Cn1c2c(cc(C#N)c1=O)COC(C)(C)C2
  1.5	-2.11
> COCCNC(=O)c1c[nH]n2c(=O)cc(C3CCNCC3)nc12
  0.41	-0.95
> O=c1c2ccccc2n2c(-c3ccc(O)cc3)nnc2n1Cc1ccccc1Cl
  0.89	0.4
> NC(=O)c1nc(-c2ccccc2)nc2c1[nH]c(=O)n2-c1ccc(F)cc1
  0.89	x
> CCCNC(=O)Cn1c(=O)c2cccn2c2cccnc21
  0.07	x
> CC1=NN(C(=O)c2cc(C(C)C)cc(C(C)C)c2O)C(O)(C(F)(F)F)C1 (configuration not stated)
  x	-0.58

# Source: PubChem BioAssay (Center for Chemical Genomics, University of Michigan)
